From PubChem
Mtb growth: Mycobacterium tuberculosis H37Rv growth inhibition, cell based, confirmatory dose response (AID 1949) | 100,000 tested, 1.6% active | most inactive calls were filed without a number and no value below 0 was filed | M. tuberculosis H37Rv growth inhibition | inhibition, % at 10 µg/mL; hits with a dose series show IC50 in µg/mL;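 active = confirmed in a dose series; inconclusive = about 50% or more but not retested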;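 note: bacteria grown 7 days with compound before Alamar blue readout; 0% = untreated bacteria and 100% = reference antibiotic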
Numbers without * were called inactive; i = inactive; ? = inconclusive. These rows are one share of the data, so the mix of outcomes need not match the whole.

smiles | Mtb growth
S=C(Nc1ccccc1)Nc1cc(Cl)c(Cl)cc1Cl | i
Cc1nc2c(-c3ccc(Cl)cc3)cnn2c(N)c1-c1ccccc1 | 0.84µg/mL*
O=C(CSc1ncnc2scc(-c3ccc(Cl)cc3)c12)N1CCCCC1 | 0.3%
COCCNS(=O)(=O)c1ccc(OC)c(Cl)c1Cl | 1.1%
COc1ccc(/C(N)=N/OC(=O)c2ccccc2Cl)cc1OC | i
O=S(=O)(Nc1cccc2c1CCCC2)c1ccccc1 | i
O=C(CCCN1C(=O)c2ccccc2C1=O)Nc1ccc2c(c1)OCO2 | i
CCN(Cc1ccncc1)C(=O)c1cccs1 | 1.8%
Cc1nccn1-c1ncnc2scc(-c3ccccc3)c12 | i
COC(=O)c1cc(NC(=O)CSc2nnc(C)s2)ccc1Cl | i
Cc1cc(NC(=O)CSc2ccc(Cl)cc2)ccc1Br | 35.3%
COc1ccccc1N1CCN(C2CCN(C(=O)Cc3ccccc3)CC2)CC1 | 1.4%

Reprinted at random: 3 entries already listed, in no set order.
smiles | Mtb growth
COc1ccccc1N1CCN(C2CCN(C(=O)Cc3ccccc3)CC2)CC1 | 1.4%
O=C(CCCN1C(=O)c2ccccc2C1=O)Nc1ccc2c(c1)OCO2 | i
CCN(Cc1ccncc1)C(=O)c1cccs1 | 1.8%

(list continues)
smiles | Mtb growth
O=C(CCc1ccccc1)NN1C(=O)C2C3C=CC(O3)C2C1=O (stereo unspecified) | i
CCn1c(NCc2c(O)ccc3ccccc23)nc2ccccc21 | 2.05µg/mL*
CCOC(=O)Nc1nnc(CSCCOc2ccc(OC)cc2)s1 | i
Cc1ccc(NC(=O)c2ccc(C)cc2)cc1 | i
CCOC(=O)c1sc(NC(=O)c2sc3ccccc3c2Cl)c(C#N)c1C | 5.8%
Cc1ccc(S(=O)(=O)N(C)CC(=O)N2CCC(C)CC2)cc1 | i
O=c1c2cccc3cccc(c32)c2nc3ccccc3n12 | 10.1%
Cc1c(C#N)c(N)nc2c3c(sc12)NC(=O)CC3c1ccc(Cl)cc1 (stereo unspecified) | 0.3%
CS(=O)(=O)N(CC(N)=O)c1ccc(Oc2ccccc2)cc1 | i
CCn1c(SCc2ccc(Br)cc2)nnc1-c1ccc(N)cc1 | i
CC(C)N(C(=O)c1ccc(N(Cc2ccc(Cl)cc2)S(C)(=O)=O)cc1)C(C)C | i
N/C(=N/N=C/c1cccc([N+](=O)[O-])c1)c1ccccn1 | 1.3%
CNC(=S)Nc1cc(C(=O)O)ccc1C | 2.7%
CCOC(=O)c1c(NC(=O)c2ccc([N+](=O)[O-])c(C)c2)sc(C(=O)N(CC)CC)c1C | i
COc1ccc(NC(=O)c2c(NC(C)=O)sc3c2CCC3)cc1 | i
CCOc1ccccc1NC(=O)c1ccccc1SC | i
C=CCN1C(=S)N(c2ccccc2)C2CS(=O)(=O)CC21 (stereo unspecified) | i
Cc1ccc(C(=O)NC(=S)Nc2ccc(-c3cc4ccccc4oc3=O)cc2)c(C)c1 | 2.1%
Cc1ccc2nc(SCC(=O)NC(C)(C)C)[nH]c2c1 | i
Cc1ccc(C(=O)CCC(=O)CCC(=O)O)cc1 | i
COc1ccc(-c2[nH]nc3oc(=O)c(CCO)c(C)c23)cc1 | i
CS(=O)(=O)Nc1ccccc1Oc1ccccc1 | 1.4%
Cc1ccc(S(=O)(=O)Nc2ccc3c(c2)OCCO3)cc1[N+](=O)[O-] | 2.4%
CC1CCN(CCCOc2ccc(OCc3ccccc3)cc2)CC1 | i
Cc1sc2c(c1C)c(=O)nc1scc(CC(=O)NCCO)n12 | i
Cc1ccc(C(=O)N2CCc3ccccc32)o1 | i
O=C(Cc1ccc(Cl)cc1)Nc1ccc2c(c1)C(=O)NC2=O | i
O=C(Cc1ccccc1Cl)c1ccc(O)c(O)c1O | i
O=C(CCS(=O)(=O)Cc1ccccc1)N1CCN(Cc2ccccc2)CC1 | i
Nc1nnc(-c2cc(-c3ccc(Cl)cc3)on2)o1 | i
CC12CCC(C(=O)NCc3ccccn3)(OC1=O)C2(C)C (stereo unspecified) | i
O=c1c2c(-c3ccccc3)csc2ncn1CCOc1ccccc1 | i
Cn1cccc1CN1CCN(Cc2ccc(Br)cc2)CC1 | i
COc1cc2c(cc1NC(=O)c1cc(C)ccc1C)oc1ccccc12 | 29.0%
Cc1cc(C(F)(F)F)nc(/N=C(\N)Nc2ccc3ccccc3c2)n1 | 6.5%
Cc1ccccc1CNC(=O)c1ccc(N(Cc2ccc(Cl)cc2)S(C)(=O)=O)cc1 | i
COc1cc(NC(=O)c2c(OC)cccc2OC)ccc1NC(=O)c1cc2ccccc2o1 | i
COc1ccc(NC(=O)CSc2nc(N)cc(=O)[nH]2)cc1 | i
O=C(Nc1cccnc1)C1CC1c1ccccc1 (stereo unspecified) | i
Cc1cccc(S(=O)(=O)Nc2ccc([N+](=O)[O-])cc2)c1 | i
FC(F)Oc1ccccc1NC(=S)Nc1cccc(Cl)c1Cl | i
CC1c2[nH]c3ccccc3c2CCN1C(=O)Nc1ccccc1 (stereo unspecified) | 11.7%
Cc1ccc(S(=O)(=O)Nc2ccccc2CNc2ccccc2)cc1 | i
Cc1ccc(OCCCn2cnc3ccccc3c2=O)c([N+](=O)[O-])c1 | i
Cc1ccnc(NS(=O)(=O)c2ccc(NC(=O)CS(=O)(=O)c3ccccc3)cc2)n1 | i
Cc1ccc(-c2nnc(Nc3cccc(O)c3)c3ccccc23)cc1S(=O)(=O)NC(C)(C)C | 11.9%
COc1ccc(OC)c(CNCc2ccccc2OC)c1 | i
Cc1c(NC(=O)NC(=O)COc2ccc(Cl)cc2Cl)c(=O)n(-c2ccccc2)n1C | i
COC(=O)c1ccc(-n2ncnc2-c2ccc(Br)cc2)cc1 | 20.0%
Cc1oc(C(=O)O)cc1CN1CCCC1 | i
CCN(CC)CCCN1C(=O)C(O)=C(C(=O)c2ccc(C)o2)C1c1ccc(F)cc1 (stereo unspecified) | i
CCC(CO)NC(=O)C(=O)Nc1cccc(F)c1 (stereo unspecified) | i
COc1ccc2cc(Br)ccc2c1COc1ccccc1 | i
Cc1cccc(N2CCN(C(=S)Nc3cccc4ccccc34)CC2)c1C | 4.3%
CC(=O)Nc1cccc(C(=O)OCc2ccc(S(=O)(=O)Cc3ccccc3)cc2)c1 | i
CC(=O)Nc1ccc(N2C(=O)CC(NCc3ccco3)C2=O)cc1 (stereo unspecified) | i
COc1nnc(-c2ccc(N3CCOCC3)c(NC(=O)COc3ccc([N+](=O)[O-])cc3)c2)c2ccccc12 | i
COc1cccc(N2CCN(C(=S)Nc3cc(OC)ccc3OC)CC2)c1 | 1.1%
COc1ccccc1Nc1nc(-c2ccc(OC)c(OC)c2)cs1 | 15.1%
c1nc(N2CCN(C3CCCC3)CC2)c2c3c(sc2n1)CCCC3 | i

Going on with the list:
smiles | Mtb growth
COc1ccc(OCC(=O)N=Nc2c(O)n(C)c3ccccc23)c(Br)c1 | i
COc1ccc(Br)cc1C(=O)Nc1cc(C)on1 | i
CC1CN(CCCCOc2ccc(C(C)(C)c3ccccc3)cc2)CC(C)O1 (stereo unspecified) | i
Cc1ccc(NS(=O)(=O)c2ccc(NC(=O)c3ccccc3Br)cc2)c(C)c1 | 4.4%
O=C(Nc1ccccc1Cl)C1CCN(C(=O)c2cccs2)CC1 | i
COc1cc(NC(=S)NC(=O)c2ccc(Cl)cc2)ccc1NC(=O)c1ccco1 | 1.1%
NC(=O)c1ccccc1OCC(=O)NS(=O)(=O)c1ccccc1 | i
CC(C)CNS(=O)(=O)c1ccc(OCC(=O)Nc2ccc(F)cc2F)c(Cl)c1 | i
CCOc1ccc(C2C(C(=O)OC)=CN(Cc3ccc(Cl)cc3)C=C2C(=O)OC)cc1 | i
COc1ccc(OC)c(/C=C2/SC(N3CCN(C(c4ccccc4)c4ccccc4)CC3)=NC2=O)c1 | i
CCC(Oc1ccccc1)C(=O)NC(C)C12CC3CC(CC(C3)C1)C2 (stereo unspecified) | 20.0%
CCCOc1ccccc1/C=C(/C#N)c1ccc([N+](=O)[O-])cc1 | i
Nc1nc(-c2cccs2)c(-c2cccc3ccccc23)s1 | 16.4%
CCOC(=O)C1CCCN1C(=O)c1ccc(OC)c(I)c1 (stereo unspecified) | i
Cc1ccc(-c2ccc(S(=O)(=O)NCC3CCCO3)cc2)cc1 (stereo unspecified) | i
CCOC(=O)Nc1c(O)ccc2oc(C)c(-c3ccccc3)c12 | 3.1%
Cc1ccc(Cl)c(OCC(=O)NC2=NCCS2)c1 | 2.5%
Cc1cc(OCC(=O)Nc2ccc(C#N)cc2)cc(C)c1Br | 7.5%
Cc1c(NC(=O)c2ccc(N(C)S(C)(=O)=O)cc2)c(=O)n(-c2ccccc2)n1C | i
Cc1ccccc1CN1CCN(C2CCCC(C)C2)CC1 (stereo unspecified) | i
COCC(C)NC(=O)c1cccc(NC(=O)C(C)C)c1 (stereo unspecified) | i
O=C(CSCc1ccccc1)Nc1ccc(F)c(F)c1 | ?
N#Cc1ccccc1OCC(=O)NC(c1ccccc1)c1ccccc1 | i
Cc1sc2ncn(CC(=O)Nc3ccc(Cl)cc3)c(=O)c2c1C | i
CC(=O)c1cccc(NS(=O)(=O)c2ccc(Br)cc2)c1 | i
CN1CCN(CCCCOc2cccc(C(F)(F)F)c2)CC1 | i
CCc1ccc(OC(=O)COc2ccc(C)cc2)cc1 | i
COc1ccc(C(=O)N2CCCC2(C#N)c2ccccc2)cc1[N+](=O)[O-] (stereo unspecified) | i
Cn1cnnc1SCC(=O)Nc1nc(-c2ccccc2)cs1 | i
COc1cccc(C(=O)NC2(C(F)(F)F)C(=O)N(CC3CCCO3)C3=C2C(=O)CC(C)(C)C3)c1 (stereo unspecified) | i
COc1ccc(-c2csc(NC(=S)NC(=O)c3cc4ccccc4o3)n2)cc1 | 2.5%
COc1ccc(CC(=O)Nc2ccc(Cl)c(Br)c2)cc1 | i
CCS(=O)(=O)Nc1cc(C(F)(F)F)ccc1Cl | i
COc1ccc(OCCn2c(-c3ccc(Br)cc3)nc3ccccc3c2=O)cc1 | i
Clc1ccccc1OCCCN1CCCCC1 | i
COc1ccc(NC(=O)CN(c2c(C)cccc2C)S(C)(=O)=O)cc1 | i
CC(=O)Nc1ccccc1C(=O)OCc1ccccc1Cl | 4.2%
Cc1oc2c(c1C(=O)NCc1ccccc1)CCCC2 | i
COCc1cc(/C=C(/C#N)S(=O)(=O)c2ccccc2)ccc1OC | i
CCOC(=O)c1ccc2nc(C)cc(Nc3cccc(C(F)(F)F)c3)c2c1 | 36.4%
O=c1[nH]c2ccccc2nc1/C=C/c1ccc(Cl)cc1 | 3.0%
COc1cc(C(=O)OCc2ccc(F)cc2)c(Br)c(OC)c1OC | i
Cc1ccc(S(=O)(=O)N2Cc3ccccc3CC2C(=O)Nc2sc3c(c2C#N)CCCC3)cc1 (stereo unspecified) | i
O=S(=O)(N1CCCCCC1)N1CCN(S(=O)(=O)N2CCCCC2)CC1 | i
N#C/C(=C\c1ccc(N2CCC(Cc3ccccc3)CC2)c([N+](=O)[O-])c1)c1nc2ccccc2[nH]1 | 7.5%
COc1ccc(I)cc1S(=O)(=O)N1CCN(c2ccccc2F)CC1 | i
Cc1ccc(C(=O)Nc2nnc(SCC(=O)Nc3ccc(F)cc3)s2)cc1 | i
Cc1ccc(NC(=O)C(=O)NCCc2ccc(Cl)cc2)cc1Cl | i
NS(=O)(=O)c1ccc(CNC(=S)NC2CC2)cc1 | i
CCCOc1ccc(-c2csc3ncn(CC(=O)N4CCC(C)CC4)c(=O)c23)cc1 | i
CS(=O)(=O)N1CCN(C(=O)c2cc3ccccc3oc2=O)CC1 | i
CCCC(C)n1[nH]c(=O)c2c(C)cc(C)nc21 (stereo unspecified) | 3.3%
CCc1ccc(N(CC(=O)N2CCN(Cc3ccccc3)CC2)S(C)(=O)=O)cc1 | i
C=CCn1c(C(CCCC)CC(O)COCCC)n[nH]c1=S (stereo unspecified) | i
CCc1cc(OCCNC2CCCC2)ccc1Cl | i
Clc1ccc2noc(-c3ccccc3)c2c1 | i
COc1ccc(C2(CNC(=O)c3ccc(C)cc3)CCOCC2)cc1 | i
Fc1ccc(-n2c(-c3cccnc3)n[nH]c2=S)cc1Cl | i
CCOC(=O)c1c(NC(=O)C(CC)c2ccccc2)sc(C)c1CC (stereo unspecified) | 2.5%
COc1cc(OC)c(C2=NOC(C(=O)Nc3sc4c(c3C#N)CCC4)C2)cc1Cl (stereo unspecified) | 14.4%

Other compounds follow:
smiles | Mtb growth
CCOC(=O)c1ccc(NC(=S)N2CCCC2C(=O)N2CCCC2)cc1 (stereo unspecified) | i
COc1ccccc1C(=O)CS(=O)(=O)c1ccc(C)cc1 | i
O=C1c2ccc([N+](=O)[O-])cc2C(=O)N1CCCn1ccnc1 | 1.1%
COc1ccc(CCNC(=S)Nc2ccccc2SC)cc1OC | i
COc1ccc(C2C(Oc3ccccc3C)C(=O)N2c2cc(C)ccc2C)cc1OC (stereo unspecified) | i

Of the compounds above, these contain a CF3 group:
smiles | Mtb growth
Cc1cc(C(F)(F)F)nc(/N=C(\N)Nc2ccc3ccccc3c2)n1 | 6.5%
CN1CCN(CCCCOc2cccc(C(F)(F)F)c2)CC1 | i
COc1cccc(C(=O)NC2(C(F)(F)F)C(=O)N(CC3CCCO3)C3=C2C(=O)CC(C)(C)C3)c1 (stereo unspecified) | i
CCS(=O)(=O)Nc1cc(C(F)(F)F)ccc1Cl | i
CCOC(=O)c1ccc2nc(C)cc(Nc3cccc(C(F)(F)F)c3)c2c1 | 36.4%
